SARS PLP yeast: inhibitors of SARS-CoV papain-like protease in yeast. AID 485353. S. cerevisiae expressing SARS-CoV PLpro, growth rescue; control for the full effect not named in the record. Potency, µM (series often up to 32.9 µM), for inactives: at the top dose activity, positive = growth rescue. 330,000 tested, 0.19% active; active means well fitted rising curve with a large enough effect; inconclusive means small, poorly fitted or top-dose-only effect; inactive means no such curve, though single readings can be large or run the other way; note: 0% is about no effect; nearly all actives have a fitted effect of over 55% in size; growth read by luminescence after 48 h
Cruzain noTriton: inhibitors of Trypanosoma cruzi cruzain without detergent; AID 1476; purified cruzain, Z-FR-AMC fluorescence, no detergent; 200,000 tested, 2.3% active; Potency, µM, for the others: max response, negative = inhibition, most hits filed as inhibitors;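 note: plate controls were enzyme without inhibitor for no effect and buffer without enzyme for full effect; nearly all actives have a fitted effect of over 40% in size; top concentration of the series not given in the record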
Target sequence (P25779 123-467 limits assumed): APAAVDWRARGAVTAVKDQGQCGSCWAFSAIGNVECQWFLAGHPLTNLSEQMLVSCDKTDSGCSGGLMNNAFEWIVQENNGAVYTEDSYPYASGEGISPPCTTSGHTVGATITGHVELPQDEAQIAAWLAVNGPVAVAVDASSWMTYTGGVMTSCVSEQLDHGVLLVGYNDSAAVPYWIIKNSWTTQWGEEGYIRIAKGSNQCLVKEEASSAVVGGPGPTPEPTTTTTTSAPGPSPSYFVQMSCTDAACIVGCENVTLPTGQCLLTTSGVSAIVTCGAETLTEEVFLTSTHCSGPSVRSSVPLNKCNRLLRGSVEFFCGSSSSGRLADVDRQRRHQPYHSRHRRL
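Detergent-free condition (0.00005% Triton X-100) in acetate buffer pH 5.5 with DTT. 1.5 nM enzyme and compound were pre-mixed 15 min, then 2 uM Z-FR-AMC substrate added; reaction progress from fluorescence change between first and third reads (60 s).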
MARV entry inh: inhibitors of Marburg virus binding or cell entry. Marburg virus pseudotyped entry inhibition, cell reporter; control for the full effect not named in the record; about a third of the inactives were read at about 46 µM. Potency, µM (highest dose often 37.8 µM), without a hit: top-dose activity change, negative = inhibition, actives largely listed as inhibitors. 300,000 tested, 1.8% active. AID 540276; active = well fitted inhibition curve with a large enough effect; inconclusive = small, poorly fitted or top-dose-only effect, or effect the other way; inactive = flat fitted curve, though single readings scatter; tested in HEK293 cells; about a fifth of its hits are not listed in these tables; note: % is set by controls: 0 for no effect and ±100 for the full control effect; luciferase read-out
NS1 inh: blocks influenza NS1 protein function. S. cerevisiae slowed by influenza A NS1, growth recovery by OD600. Potency, µM (titrated, usually from 46.1 µM), for inactives: at the top dose activity, positive = more growth. 270,000 tested, 0.4% active. AID 2326; active means well fitted rising curve with a large enough effect; inconclusive means small, poorly fitted or top-dose-only effect; inactive means no such curve, though single readings can be large or run the other way; note: nearly all actives have a fitted effect of over 50% in size
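S. cerevisiae expressing influenza A NS1, grown in glucose, washed, then diluted 1:100 into pH 6.0 -URA galactose medium with 23 nl compound. Growth recovery read as OD600; NS1-free strain serves as control.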
LASV entry inh: Lassa virus entry inhibition; Lassa virus pseudotype entry inhibition, cell reporter; control for the full effect not named in the record; Potency, µM (series often up to 37.9 µM), without a hit: at the highest dose activity change, negative = inhibition, most hits filed as inhibitors; 300,000 tested, 1.2% active; AID 540256; active means well fitted inhibition curve with a large enough effect; inconclusive means small, poorly fitted or top-dose-only effect, or effect the other way; inactive means flat fitted curve, though single readings scatter; tested in HEK293 cells; note: % is set by controls: 0 for no effect and ±100 for the full control effect; nearly all actives have a fitted effect of over 50% in size; luciferase read-out
Cruzain inh Det: blocks cruzain activity in presence of Triton detergent; 200,000 tested, 0.43% active; Potency, µM, for the others: max response, negative = inhibition, most hits filed as inhibitors; purified cruzain, Z-FR-AMC fluorescence, 0.01% Triton;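 note: plate controls were neutral wells for no effect and buffer without enzyme for full effect; nearly all actives have a fitted effect of over 40% in size; top concentration of the series not given in the record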
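15 min RT preincubation of 1.5 nM cruzain with compound, then 2 uM Z-FR-AMC added; kinetic AMC fluorescence, 60 s delta. Triton X-100 0.01%, pH 5.5.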
2A StopGo: lowers the luciferase signal of an FMDV 2A StopGo reporter. Potency, µM (titrated, usually from 57.9 µM), for inactives: at the highest dose signal change, negative = less light. human cells with a luciferase reporter of 2A StopGo recoding; control for the full effect not named in the record. 410,000 tested, 1.2% active; active = well fitted falling curve with a large enough effect; inconclusive = small, poorly fitted or top-dose-only effect; inactive = no such curve, though single readings can be large or run the other way; tested in HEK293T cells; note: % is set by controls: 0 for no effect and ±100 for the full control effect; nearly all actives have a fitted effect of over 45% in size; luciferase light after 4 h
RE007 growth inh: less growth of the S. pombe RE007 Vpr strain; Potency, µM (top dose mostly 92.2 µM), inactives show top-dose activity change, negative = less growth; 360,000 tested, 0.21% active; AID 651644; S. pombe RE007 Vpr strain, BacTiter-Glo ATP luminescence, 24 h; control for the full effect not named in the record; active = well fitted falling curve with a large enough effect; inconclusive = small, poorly fitted or top-dose-only effect; inactive = no such curve, though single readings can be large or run the other way;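 note: % is set by controls: 0 for no effect and ±100 for the full control effect; nearly all actives have a fitted effect of over 50% in size; the assay follows cell death caused by Vpr and the record does not say whether a fall means rescue or toxicity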
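Fission yeast RE007 carrying one integrated HIV-1 vpr copy, seeded at OD 0.01 in PMG+AL medium with 23 nL pinned compound. Grown 24 h at 30 degrees; viability read by BacTiter-Glo luminescence after 5 min.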
* = called active by the depositor; ? = inconclusive; / = no result given; & = joins results of further samples; [ ] = another dose, or the depositor's remark. Unless noted, calls come from the whole dose curve; as a rule, active = well fitted curve in the direction sought with a large enough effect; inconclusive = small, poorly fitted or top-dose-only effect, or another doubt; inactive = no such curve, though single readings can be large; an effect the other way counts as inactive or inconclusive. Potency is the fitted concentration of half-maximal effect. Random draw from the library (roughly 4.7% active in at least one column).

molecule	SARS PLP yeast	Cruzain noTriton	MARV entry inh	NS1 inh	LASV entry inh	Cruzain inh Det	2A StopGo	RE007 growth inh
Cc1cccc(NC(=O)CSc2nc3[nH]ncc3c(=O)[nH]2)c1	19%	-5%	10%	-3%	-2%	-0.3%	-8%	-2%
COc1cccc2cc(C(=O)NC3CC4CCC3C4)oc12 (stereo not given)	-16%	/	-1%[46.1 µM]	-53%	?	/	-21%	-25%
Cc1nc(C)n(C(C)CNC(=O)c2ccccc2)n1 (stereo not given)	-12%	/	-5%	-2%	?	/	-11%	5%
Cc1cc(C)n(Cc2ccccc2F)c(=O)c1C#N	7%	2%	41%	0%	-4%	0.9%	0%	6%
Cc1ccc(Cl)cc1N1CCN(Cc2cc(=O)n3ccsc3n2)CC1	-3%	/	/	-7%	1%	/	?	11%
CCCCC(=O)Oc1c(S(=O)(=O)c2ccccc2)c(C)nn1C(C)(C)C	-3%	/	?	-5%	?	/	-18%	2%
Oc1ccc(/C=N/Nc2ccnc3cc(Cl)ccc23)c(O)c1O	23%	/	-7%[46.1 µM]	6%	-5%	/	-11%	-15%
O=C(c1ccc(F)cc1)N1CCN2C(=O)c3ccccc3C12c1ccc(Cl)cc1 (stereo not given)	0%	/	?	3%	1%[46.1 µM]	/	-12%	1%
C/C(=N\NC(=O)c1csc(C)c1C)c1ccc(Cl)s1	-8%	0%	23%	6%	27%	6.2%	38%[activator]	-14%
COc1ccc(-c2csc(NC(=O)COC(=O)Cc3ccccc3)n2)cc1OC	2%	-11%	-1%	25%	4%	-2.9%	/	/
CCOC(=O)c1ccc(N2C(=O)CC(N3CC=C(c4ccc(F)cc4)CC3)C2=O)cc1 (stereo not given)	-23%	?	12%	-13%	1%	-6.9%	6%	?
CC1CCCN(C(=O)CNS(=O)(=O)c2cccs2)C1 (stereo not given)	4%	/	34%[46.1 µM]	6%	-1%[46.1 µM]	/	26%	9%
COc1ccc(/C=N/OCc2nc3c4c(ncn3n2)Oc2ccc3ccccc3c2C4c2ccccc2)cc1 (stereo not given)	12%	1.6µM*	?	?	-9%	5.0%	10%	1%
COCCN(C(=O)COC(=O)CCOc1ccccc1C)c1c(N)n(Cc2ccccc2)c(=O)[nH]c1=O	/	/	-9%	/	-15%	/	-7%	-14%
O=C(COc1ccc(Cl)cc1)N/N=C/c1cccc2cccnc12	-5%	/	?	-4%	9%	/	-15%	6%
O=C(N[C@H]1CC1c1ccccc1)c1ccc([N+](=O)[O-])cc1 (stereo not given in full)	-4%	/	/	-4%	/	/	50%[activator]	16%
CCS(=O)(=O)N1CCCC(C(=O)NCCN(C)Cc2ccccc2)C1 (stereo not given)	4%	-5%	-4%	1%	-6%	-2.1%	-10%	2%
CCOC(=O)c1c(C)sc(-c2c(-c3cc(C)ccc3C)[nH]c3c2c(=O)[nH]c(=O)n3C)c1O	/	18%	-11%[46.1 µM]	/	-4%[46.1 µM]	-8.4%	-7%	/
CCOC(=O)C1CCN(C(=O)COc2ccc(Br)cc2Br)CC1	0%	/	5%[46.1 µM]	-8%	-4%[46.1 µM]	/	-14%	-5%
CCCc1nc(-c2ccccc2)c(-c2ccc(OC)c(OC)c2)c(=O)[nH]1	?	/	/	5%	/	/	-13%	6%
CCC12CN3CC(CC)(CN(C1)C3c1ccccc1Cl)C2O (stereo not given)	0%	-2%	-7%	-6%	0%	4.8%	8%	-5%
O=C(Nc1nnc(/C=C/c2ccccc2)s1)c1ccco1	-1%	/	/	-55%	/	/	43%[activator]	-3%
Cc1ccc(C(=O)CSc2nc3cc(C(=O)NC4CCCC4)ccc3c(=O)n2CC2CCCO2)cc1 (stereo not given)	/	1%	/	/	-4%[46.1 µM]	1.3%	7%	/
COc1ccc(-c2cc(C(=O)NCc3cn(C)nc3C)c3ccccc3n2)cc1OC	2%	?	?	0%	-1%	-5.6%	-18%	2%
COCCN(C(=O)CNC(=O)c1ccco1)C(C(=O)NC1CCCC1)c1ccc(F)cc1 (stereo not given)	-2%	/	1%[46.1 µM]	2%	19%[46.1 µM]	/	-6%	-1%
CC1=N/C(=C/c2ccc([N+](=O)[O-])cc2)C(=O)N1c1ccc(Cl)cc1Cl	-1%	-19%	-9%	5%	-12%	0.9%	11%	-14%
Cc1cc(=O)n(CC(=O)Nc2ccc([N+](=O)[O-])cc2)c(-n2nc(C)cc2C)n1	/	-9%	/	/	15%[46.1 µM]	-4.1%	-14%	/
Cc1cc(C)cc(N(CC(=O)N2CCOCC2)S(=O)(=O)c2ccccc2)c1	0%	6%	-22%	-1%	-3%	2.5%	4%	-6%
COc1ccc(CN(C(=O)c2ccco2)c2ccc(C)cc2)cc1OC	8%	-3%	-25%	-36%	-26%	-6.3%	-23%	20%
O=C(CN1C(=O)NC2(CCCC2)C1=O)N1CCN(S(=O)(=O)c2ccccc2)CC1	-3%	/	?	/	6%[46.1 µM]	/	-1%	9%
CCN(CC)c1cc(C)c2cc(NC(=O)c3ccc(Br)o3)ccc2n1	13%	-6%	?	-18%	1%	-9.5%	-28%	2%
COc1cc(S(=O)(=O)N2CCN(c3ccccn3)CC2)ccc1Br	-6%	/	15%	-35%	-4%	/	-24%	0%
CCN(CC)S(=O)(=O)c1ccc2c(c1)c(=O)c(C(=O)N1CCOCC1)cn2C	5%	-12%	26%	-1%	-6%	0.9%	-12%	-6%
COc1ccc(C=NNC(=S)NC23CC4CC(CC(C4)C2)C3)cc1OC	/	/	?	/	?	/	0%	5%
CC1CN(C(=O)c2c([N+](=O)[O-])cnn2C)CC(C)O1 (stereo not given)	-1%	-4%	0%	2%	-5%	3.6%	13%	1%
CCCc1c(C)nc(N2CCN(c3ccccc3OC)CC2)[nH]c1=O	4%	/	-5%	0%	0%	/	-17%	-8%
CCC(C)NCCOCCOc1ccc(Br)cc1 (stereo not given)	0%	/	?	/	16%[46.1 µM]	/	-12%	-9%
Cc1ccc(CN(C)C(=O)c2cccc(S(=O)(=O)N3CCN(Cc4ccccc4)CC3)c2)o1	-3%	/	?	/	?	/	?	-7%
CCOc1cc(C(=O)N/N=C/C2CC=CCC2)cc(OCC)c1OCC (stereo not given)	13%	27%	?	22%	?	-1.5%	-1%	29%
CCOC(=O)CN(C(=O)CSc1nnc(-c2ccc(OC)c(OC)c2)o1)c1ccc(F)cc1	-5%	?	?	0%	-20%	1.0%	-22%	-6%
CCC(C)[C@H](NC(=O)Nc1ccccc1F)C(=O)OC (stereo not given in full)	0%	/	8%	5%	/	/	9%	2%
Cn1c(CS(=O)Cc2c(Cl)cccc2Cl)nnc1SCc1c(Cl)cccc1Cl (stereo not given)	-3%	9%	?	-18%	-6%	-2.5%	-4%	6%
COC(=O)c1ccc(NC(=S)NC(=O)C2CCC2)cc1	-8%	/	19%[46.1 µM]	-27%	?	/	13%	6%
C/C=C/c1ccc(OCCCn2cncn2)c(OC)c1	1%	-8%	?	-1%	1%	0.3%	32%[activator]	18%
COC(=O)c1ccc(OC(=O)CN2C(=O)c3ccccc3C2=O)cc1	0%	/	/	-15%	/	/	6%	3%
CC(C)Cn1c(-c2ccco2)nc2c(c(=O)c3ccccc3n2C)c1=O	-10%	-15%	-6%	-14%	15%	-11%	/	/
COc1ccc(C)cc1NC(=O)C(Sc1nnnn1C)c1ccccc1 (stereo not given)	0%	/	/	-4%	/	/	3%	3%
O=S(=O)(Nc1ccccc1N1CCCCC1)c1ccc(F)cc1F	-7%	/	?	0%	5%	/	-28%	-17%
COc1ccc(Cn2ccnc2SCC(=O)NC2CCCCC2)cc1	-3%	/	-15%	-10%	?	/	-9%	3%
O=C(Cc1ccc([N+](=O)[O-])cc1)N/N=C/c1ccccc1F	5%	/	/	1%	/	/	-3%	3%
CCOC(=O)C1(CCc2ccccc2)CCN(C(=O)C(C)n2cncn2)CC1 (stereo not given)	-1%	/	3%[46.1 µM]	-1%	7%[46.1 µM]	/	-13%	-3%
COc1cccc(CNC(=O)CCNS(=O)(=O)c2cccc3nsnc23)c1	4%	1%	?	/	6%&4%[46.1 µM]	2.4%	-9%&11%	-8%
O=C(OCc1cccc([N+](=O)[O-])c1)c1cccnc1Cl	1%	/	1%[46.1 µM]	0%	14%[46.1 µM]	/	10%	0%
CS(=O)(=O)NN1C(=O)c2ccccc2NC1c1cccc2cccnc12 (stereo not given)	-1%	-3%	?	5%	9%	-7.2%	37%[activator]	-5%
O=C(Nc1ccc(-c2nc3ccccc3s2)c(O)c1)c1ccc(Br)cc1	/	1%	/	/	14%[46.1 µM]	-0.2%	-10%	/
O=C(C=C1SCCS1)/C=C/c1ccco1	6%	8%	?	-8%	11µM*	-2.1%	?	-18%
Cc1ccc(CN2CCSc3ccc(C(=O)Nc4ccc(Cl)cc4)cc32)cc1	/	7.9µM*	8%[46.1 µM]	/	-4%[46.1 µM]	-4.7%	34%[activator]	/
CCNC(=O)NC(=O)C(C)Oc1ccc(C(=O)OC)cc1 (stereo not given)	-1%	-1%	-14%	1%	15%	9.9%	-5%	1%
Cn1nnnc1SCC(=O)Nc1ccccc1[N+](=O)[O-]	-1%	1%	?	?	-3%	1.0%	-18%	-1%
COC(=O)C1=C(C)NC(C)=C(C(=O)OC)C1C(=O)OCCN1C(=O)c2ccccc2C1=O	10%	-7%	-5%[46.1 µM]	5%	16%[46.1 µM]	8.2%	-7%&0%	-18%&11%
O=[N+]([O-])c1cccc(S(=O)(=O)Nc2cccc(-c3ccc(N4CCCC4)nn3)c2)c1	12%	/	23%	/	4%	/	90%[activator]	-21%
CC1=C(C(=O)OC2CCCC2)C(c2ccc(C)o2)C2=C(CC(c3cccs3)CC2=O)N1 (stereo not given)	-4%	?	3%	-36%	?	-11%	?	2%
O=c1[nH]c(CO)nc2c1oc1ccccc12	2%	-2%	-3%	-1%	13%	-0.3%	-9%	-7%

High-throughput results from PubChem.
